CDC25B CDK2 inh: primary biochemical HTRF screen for blockers of M-phase inducer phosphatase 2 binding to CDK2/cyclin A; AID 1259370, 2018; z-score (test concentration not listed); HTRF CDC25B-CDK2/CyclinA binding, anti-His/anti-Flag; stronger effect = higher value; 0.72% of 94,000 active;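 further: score is relative to mean and SD of negative controls; strong numbers were not always called active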
TAR Tat displ: TAR RNA-Tat peptide displacers, HIV-1, primary screen, biochemical, FRET, FAM/TAMRA-labeled Tat | HIV-1 TAR RNA, Tat peptide displacement FRET; stronger effect = higher value | z-score (concentration not given with the values) | 0.6% of 100,000 active | AID 1259389, 2018;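 further: score is relative to mean and SD of negative controls; some compounds called inactive have numbers as strong as hits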
Active calls of the source: *; / = not tested or not shown.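 How the source made its calls: active means z-score from 3 up in half or more of its runs; inactive means the rest.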 Hits appear at their usual frequency; 0.87% or so of the library scored in one or more.

Second line of a record – TAR Tat displ, CDC25B CDK2 inh
- COc1cccc(CNC(=O)CSc2nc(-c3ccc4c(c3)OCO4)nc3cc(=O)[nH]n23)c1
 : 0.62, /
- Cc1csc(NC(=O)CSc2nc3c(=O)n(C)c(=O)n(C)c3n2C)n1
 : 1.5, /
- FC(F)(F)c1[nH]ncc1-c1ccccc1
 : /, -2.2
- COc1ccccc1NC(=O)Cn1nc2c3sccc3ncn2c1=O
 : 1.9, /
- O=C1CCCc2cc(S(=O)(=O)N3CCC(C(=O)NC4CCCCC4)CC3)ccc2N1
 : -1.1, /
- CCc1nn(C(CC)C(=O)NC(C)CC)c(=O)c2cc3oc(C)cc3n12 (centres undefined)
 : -1.1, -1.3
- CC(=NCc1ccncc1)c1ccccc1O
 : /, -2.9
- COc1cccc(OC)c1C(=O)Oc1ccc2c(=O)c(-c3ccccc3Cl)coc2c1
 : 2, -6.6
- CC1=C(C(=O)OCCc2ccccc2)C(c2ccncc2)C2=C(CCCC2=O)N1 (centres undefined)
 : 0.2, 0.01
- Cn1c(NC(=O)C2CCCN(C(=O)c3cnn(-c4ccccc4)c3-n3cccc3)C2)nc2ccccc21 (centres undefined)
 : 1.8, -0.84
- Cn1c(=O)n(Cc2ccc(Br)cc2)c(=O)c2c1nc1n2CCN1Cc1ccco1
 : 2, /
- CCCNC(=O)Cn1sc2nc(C)cc(C)c2c1=O
 : -0.84, -2.6
- CSc1ccc(CNC(=O)c2cc(-c3cccnc3)nc3ccccc23)cc1
 : 1.5, /
- CN(C(=O)Nc1ccc(OC(F)(F)F)cc1)C1CCCCC1
 : /, -1.3
- O=C(NCCc1c[nH]c2ccccc12)C1CCN(c2nn3c(=O)c4c(nc3s2)CCCC4)CC1
 : 2.1, /
- CCCSCCCNC(=O)C(C)n1nc(CC)n2c(cc3occc32)c1=O (centres undefined)
 : -0.27, 2.3
- Cn1ccc2cc(S(=O)(=O)N3CCN(C(=O)Nc4ccccc4Cl)CC3)ccc21
 : 0.46, /
- CCOC(=O)c1c(NS(=O)(=O)c2ccc(OC)c(Br)c2)sc2c1CCCC2
 : -0.13, -0.46
- CCOC(=O)c1c(C)[nH]c(C)c1S(=O)(=O)N1CCC(C(=O)NC(C)CC)CC1 (centres undefined)
 : -0.43, /
- COc1ccc(N2CCN(C(=O)c3cc4c(s3)-c3ccsc3CC4)CC2)cc1
 : 0.07, /
- CC(C)CCn1c(SCc2ccc(F)cc2)nc2nccnc2c1=O
 : 0.65, -1.2
- O=C(O)c1ccc2c(c1)[C@@H]1C=CC[C@@H]1[C@H](c1ccccc1Br)N2
 : 0.61, -0.76
- O=c1[nH]nc(-c2ccc(F)cc2)c2c1Nc1nnnn1C2c1cccc(F)c1 (centres undefined)
 : 0.86, 0.37
- O=C(NCCCN1CCCCC1)C1CCN(c2nnc(N3CCCCC3=O)s2)CC1
 : 0.84, /
- COC(=O)COc1ccc2c(=O)c(Oc3ccc(F)cc3)c(C)oc2c1
 : 0.9, -0.31
- CC1=C(C(=O)O)N2C(=O)[C@@H](NC(=O)[C@H](N)c3ccccc3)[C@H]2SC1
 : 1, /
- CN1CCN(c2ccc3nnc(CCC(=O)N4CCCC4)n3n2)CC1
 : 0.04, /
- COC(=O)c1cccc(COC(=O)CCc2nc3ccccc3[nH]c2=O)c1
 : 0.36, -1
- N=C(N)CSc1ccccc1
 : /, -1
- COC(=O)C(CCSC)NC(=O)c1cc2c(n(-c3ccccc3)c1=O)CCCC2=O (centres undefined)
 : 1.3, 1.5

A second format for part of the listing above:
CC1=C(C(=O)O)N2C(=O)[C@@H](NC(=O)[C@H](N)c3ccccc3)[C@H]2SC1
  TAR Tat displ = 1	CDC25B CDK2 inh = /
CN1CCN(c2ccc3nnc(CCC(=O)N4CCCC4)n3n2)CC1
  TAR Tat displ = 0.04	CDC25B CDK2 inh = /
COC(=O)c1cccc(COC(=O)CCc2nc3ccccc3[nH]c2=O)c1
  TAR Tat displ = 0.36	CDC25B CDK2 inh = -1
N=C(N)CSc1ccccc1
  TAR Tat displ = /	CDC25B CDK2 inh = -1

Further entries follow.
Second line of a record – TAR Tat displ, CDC25B CDK2 inh
- COC(=O)c1cc(C)nc2c1c(=O)nc(SCc1ccc(F)cc1)n2C1CC1
 : -0.69, /
- Brc1ccc(OCc2nn3c(-c4ccncc4)nnc3s2)cc1
 : -0.55, -1.2
- COc1ccccc1N1CCN(c2nc(C)nc3sc4c(c23)CCCC4)CC1
 : /, -3
- O=C1NC(c2cccc(O)c2)c2c1n[nH]c2-c1cccs1 (centres undefined)
 : 0.27, -0.1
- O=C(c1ccco1)c1cn(CCOc2ccc(Cl)cc2)c2ccccc12
 : 0.09, 0.44
- COc1cc(C2NC(=O)NC(C)=C2C(=O)OCCc2ccccc2)cc(Br)c1O (centres undefined)
 : /, -1.2
- CCC(C(=O)N1CCCC1)n1c(C(=O)OC)cc2sccc21 (centres undefined)
 : -0.19, -2.1
- CC(C)N(Cc1c(O)ccc2c(=O)c(-c3ccc(Cl)cc3)coc12)C(C)C
 : 0.61, -0.64
- Cn1cc(CCC(=O)N2CCN(c3ccccn3)CC2)c2ccccc21
 : 1.1, /
- CCOC(=O)c1c(C)[nH]c(C(=O)O)c1C
 : 2.2, -2.3
- c1c2c(cc3sc(N4CCCC4)nc13)OCCO2
 : /, -5.1
- CC(C)(C)c1ccc(OCCn2c(=O)oc3ccccc32)cc1
 : 2.1, -0.61
- Cc1cccc(-c2c3c(=O)n(C)c(=O)n(C)c3cn2-c2ccccn2)c1
 : 2.7, -2.6
- O=C(O)c1sc2c(cnc3ccc(F)cc32)c1-c1ccccc1
 : 1.2, 1.3
- CCOC(=O)CS/C(Nc1ccccc1C(F)(F)F)=C(/C#N)C(=O)OCC
 : /, -1.5
- Cc1ccc(S(=O)(=O)NCCc2csc3nc(-c4cccs4)nn23)s1
 : -0.79, /
- Cc1cc(=O)[nH]c(SCc2cc(=O)n3nc(SCC(C)C)sc3n2)n1
 : 0.22, -1.5
- Cc1nc(-n2ncc(C#N)c2N)c2c3c(sc2n1)CCC3
 : 1.7, -0.56
- Cc1ccc(C2C(C#N)=C(N)Oc3ccc4ccccc4c32)cc1 (centres undefined)
 : /, -0.61
- O=C1c2cccnc2C(O)N1Cc1ccco1 (centres undefined)
 : /, -2
- CCCOc1ccc(CN(C(=O)Cc2coc3ccc(CC)cc23)C2CCS(=O)(=O)C2)cc1 (centres undefined)
 : 0.1, 0.36
- COC(=O)c1cc(-c2ccccc2)c2c(=O)n(C)c(=O)n(C)c2n1
 : -0.18, -0.8
- Nc1cc(-c2ccc(Cl)cc2)nn1S(=O)(=O)c1ccc(Br)cc1
 : 0.42, 1.3
- Cc1nnc(Sc2nc3ccc(Cl)cc3s2)n1-c1ccc2c(c1)OCCO2
 : /, -1.3
- Cn1c(=O)n(CCc2ccccc2)c(=O)c2c1nc1n2CCN1c1ccccc1
 : 2.8, /
- COC(=O)c1cc(S(=O)(=O)Nc2cccc3c2CCCC3)c[nH]1
 : 0.33, /
- CCC(C)NC(=O)c1csc2c1CCCCC2 (centres undefined)
 : 1.3, 1.6
- CCCN(CCC)CCCn1cnc2c([nH]c3ccc(F)cc32)c1=O
 : 1.5, -2.6
- COc1ccc(-c2noc(C(C)NS(=O)(=O)c3ccc(Br)cc3)n2)cc1 (centres undefined)
 : 2.2, -0.66
- COC(=O)n1c(=O)oc2cc(Cl)ccc21
 : 0, -0.83

Some of the entries above, set out differently.
compound	TAR Tat displ	CDC25B CDK2 inh
O=C1c2cccnc2C(O)N1Cc1ccco1 (centres undefined)	/	-2
CCCOc1ccc(CN(C(=O)Cc2coc3ccc(CC)cc23)C2CCS(=O)(=O)C2)cc1 (centres undefined)	0.1	0.36
COC(=O)c1cc(-c2ccccc2)c2c(=O)n(C)c(=O)n(C)c2n1	-0.18	-0.8

Additional structures:
Second line of a record – TAR Tat displ, CDC25B CDK2 inh
- Cc1cc(C)c2oc(-c3ccc(C)c(NC(=O)C(C)C)c3)nc2c1
 : 0.4, -0.29
- CCc1ccc(-c2[nH]nc3nc(-c4ccc(C(=O)O)cc4)cc(C(=O)O)c23)cc1
 : 2.9, /
- Clc1ccc(-c2cnc3ccccc3n2)cc1
 : 1.5, -2
- CCCCOC(=O)CSc1n[nH]c(=O)[nH]c1=O
 : -0.78, -2
- CCc1ccc2occ(CC(=O)Nc3nc4ccc(S(C)(=O)=O)cc4s3)c2c1
 : -0.15, -5.6
- Cn1c(=O)n(C)c2cc(CNc3ccc(N4CCOCC4)c(C(=O)O)c3)ccc21
 : -0.27, 0.49
- Cc1ccc(S(=O)(=O)c2ccc(Cl)c(N)c2)cc1
 : /, 1.5
- COc1ccc(-c2noc(CSc3nnc(C)n3-c3ccccc3)n2)c(OC)c1
 : 0.77, -1.9
- O=c1cc(COc2ccc(Cl)cc2)nc2sc3c(n12)CCCC3
 : -0.47, -1.3
- CCOC(=O)c1cn[nH]c1S(=O)(=O)N1CCCCC1
 : 1.1, /
- O=C1C2C(C(=O)N1c1cccc(Cl)c1)C1C=CC2C12CC2 (centres undefined)
 : /, -1.6
- Cc1cc(-c2ccc(S(=O)(=O)Nc3cccc(C)c3C)s2)n[nH]1
 : -1.2, /
- CCN(CC)C(=O)CC1Oc2ccccc2NC1=O (centres undefined)
 : 1.3, -1.8
- Cc1cccc(Cn2c(Sc3nncn3C)nc3c2c(=O)[nH]c(=O)n3C)c1
 : -0.46, -0.19
- Cc1cc(C)c2c(=O)n(CC(=O)N3CCN(C4CCCCC4)CC3)sc2n1
 : -0.1, -0.77
- CN1C(=O)C(Cc2nc3ccccc3c(=O)n2-c2ccccc2)c2cc(Br)ccc21 (centres undefined)
 : /, -0.56
- COc1cccc(C(=O)Nc2nnc(C(F)(F)C(F)(F)C(F)(F)F)s2)c1
 : /, -1.6
- O=C(Nc1nonc1-c1ccccc1)c1nn(-c2cccc(Cl)c2)ccc1=O
 : -0.51, -0.53
- Cc1ccc(OCC(O)CN2CC(C)CC(C)C2)c(C)c1 (centres undefined)
 : /, 8.1
- CCCN1CCN(c2ncc3c(n2)CCN(Cc2cccc(C)c2)C3)CC1
 : 0, /
- CC(C)c1ccc(S(=O)(=O)N2CCN(Cc3ccc(F)cc3)CC2)cc1
 : /, 0.42
- Nc1nnc(SCc2nc3ccccc3[nH]c2=O)s1
 : -0.15, /
- O=C(NCc1cccn1Cc1ccccc1)Nc1cc(F)ccc1F
 : 0.12, /
- CC(=O)CSc1nc2sc3c(c2c(=O)n1-c1ccccc1)CCC3
 : /, 1.2
- CCNc1ncccc1-c1nc(-c2cccc(C)c2)no1
 : 1.1, 1.1
- COC(=O)/C=C1/OC(c2ccc(OC)cc2)=CC1=O
 : /, 0.21
- COc1ccc(-c2noc(CSc3nnc(C)n3-c3cccc(C)c3)n2)c(OC)c1
 : 5.9, -1.5
- CCOC(=O)C1CCN(S(=O)(=O)c2cnc[nH]2)CC1
 : 1.8, /
- COc1ccc(-c2cc(-c3nc(-c4cccnc4)no3)[nH]n2)cc1
 : 0.77, /
- Cc1cccc(N2CCN(S(=O)(=O)c3c(C)nc4sc5ccccc5n4c3=O)CC2)c1C
 : 1.7, -1.2
- Cn1c(CNc2ccccc2O)nc2ccccc21
 : -5.3, -0.5
- c1ccc(CNc2nn3nnnc3c3ccccc23)nc1
 : 1.1, -2.2
- CC(C(=O)Nc1cccnc1)N1Cc2ccccc2C1=O (centres undefined)
 : 0.74, /
- Cc1cc(C)cc(NS(=O)(=O)c2c(C)[nH]c(=O)[nH]c2=O)c1
 : 2.2, /
- CC(NCCn1cnc2c(N)ncnc21)c1ccccc1 (centres undefined)
 : /, -1.2
- CCCN1CCN(C(=O)C2CCN(c3nnc(N4CCCCC4=O)s3)CC2)CC1
 : 0.85, /
- CCc1nc(SCc2cc(=O)c3cc(Cl)ccc3[nH]2)n[nH]1
 : 0.83, /
- CCN1CCN(c2nc(NC)nc3c2cnn3C)CC1
 : 2.4, /
- CCCc1cc(=O)n2nc(N3CCCC3C(=O)Nc3ccc(Br)cc3F)sc2n1 (centres undefined)
 : 2.1, 0.76
- COc1ccc(/C=C(\C#N)c2ccccn2)cc1
 : /, -0.55
- Cc1ccc(Cn2c(C)c(CNCc3ccco3)c(C(=O)O)c2C)cc1
 : 1.1, /
- CC(=O)C(C)(C)OC(=O)NCCc1ccc(Cl)cc1
 : /, -1.8
- Cc1nc2ccc(S(=O)(=O)NC(C(=O)Nc3nccs3)C(C)C)cc2s1 (centres undefined)
 : 0.79, 0.58
- COc1ccc(-c2nc(C#N)c(NCc3ccc4c(c3)OCO4)o2)cc1
 : -0.86, -1.1
- Cc1ccc2c(c1)n(CO)c(=O)n2CO
 : 1.4, -0.5
- Cc1cc2c(cc1S(=O)(=O)Nc1c(C)n(C)n(-c3ccccc3)c1=O)OCC(=O)N2
 : 2.5, /
- Cc1cc(C)c2c(=O)[nH]cnc2n1
 : /, -0.43
- COc1ccc(-c2c(C)nn3c(N4CC(C)CC(C)C4)cc(C)nc23)cc1OC (centres undefined)
 : -0.76, -0.88
- CN1CCc2c(sc3c2C(=O)NC(c2cccc(Br)c2)N3)C1 (centres undefined)
 : 0.15, -0.8
- O=S(=O)(c1ccc(-c2cnc(C3CCCC3)o2)s1)N1CCc2ccccc2C1
 : 1.3, /
- CC1CCN(C(=O)C2CCCN(S(=O)(=O)c3ccc4c(c3)CCCC(=O)N4)C2)CC1 (centres undefined)
 : -2.1, /
- CCn1nc(C)c(CCNC(=O)Nc2ccc3c(c2)OCCO3)c1C
 : 0.79, /
- CC(Oc1ccccc1)C(=O)Nc1c(C(=O)NC(C)(C)C)oc2ccccc12 (centres undefined)
 : 1.8, /
- CCOc1ccc(N2C(=O)c3cccnc3C2Nc2cc(Cl)c(OC)cc2OC)cc1 (centres undefined)
 : -4, /
- Cc1[nH]c2ccccc2c1C1=C(NCCc2ccc(F)cc2)C(=O)N(C)C1=O
 : -4.5, /
- CCOC(=O)c1cccc(-n2nnc3c(sc4nc(C)cc(C)c43)c2=O)c1
 : -0.48, -1.9
- Cc1cccc(CSC2=NS(=O)(=O)c3cc(F)ccc3N2)c1
 : 1.1, /

Assay outcomes as filed in PubChem.
